VACV mCherry inh = vaccinia inhibition (mCherry reporter); Potency, µM (highest dose often 36.5 µM), without a hit: at the highest dose activity change, negative = inhibition, usual class: inhibitors; 310,000 tested, 0.63% active; Vaccinia virus mCherry reporter infection, fluorescence; about a quarter of the inactives have no number; AID 720579; active = well fitted inhibition curve with a large enough effect; inconclusive = small, poorly fitted or top-dose-only effect; inactive = no such curve, though single readings can be large or run the other way; tested in A549 cells; note: nearly all actives have a fitted effect of over 35% in size; inactives centre near -10
Vaccinia Venus = vaccinia inhibition (Venus reporter); 330,000 tested, 0.46% active; AID 720580; Potency, µM (series often up to 36.5 µM), inactives show at the highest dose activity change, negative = inhibition, usual class: inhibitors; Vaccinia virus Venus reporter expression, fluorescence; active means well fitted inhibition curve with a large enough effect; inconclusive means small, poorly fitted or top-dose-only effect; inactive means no such curve, though single readings can be large or run the other way; tested in A549 cells; note: nearly all actives have a fitted effect of over 30% in size; inactives centre near -10
Starred values were filed as active, the others as inactive; i = inactive; ? = inconclusive; nt = not tested or not shown; [ ] = another dose, or the depositor's remark. % is set by controls: 0 for no effect and ±100 for the full control effect; potency is the fitted concentration of half-maximal effect.

SMILES | VACV mCherry inh | Vaccinia Venus
CC1CCC2(CC1)NC(=O)N(NC(=O)C1CCN(C(=O)c3ccc(Cl)cc3)CC1)C2=O (centres undefined) | i | -10%
COC(=O)Cn1c(=N)n(CCN2CCCCC2)c2ccccc21 | nt | -34%
O=C(Nc1ccn(CC(=O)N2CCN(c3ccccn3)CC2)c(=O)n1)OCc1ccccc1 | -18% | 1%
O=S(=O)(Nc1ccc(-c2ccc3nncn3n2)cc1)c1cccs1 | i | -6%
Nc1nc(NCC(=O)O)nc(NCc2ccccc2)c1[N+](=O)[O-] | -23% | -4%
O=C(CCOc1ccccc1)Nc1ccc(S(=O)(=O)N2CCCC2)cc1 | nt | ?
CCOC(=O)[C@]12CCC=C1N(Cc1ccc3c(c1)OCO3)C(=O)[C@H](CC(=O)NCCCCc1ccccc1)C2 | ? | ?
Cc1cc(Br)ccc1NC(=O)C(Cc1ccccc1)NS(=O)(=O)c1ccc(Br)s1 (centres undefined) | -18% | -20%
CCOc1ccc(NC(=O)/C(=C\c2ccc(OC(C)=O)c(OC)c2)NC(C)=O)cc1 | -3% | 7%
O=C(COC(=O)c1ccc[nH]c1=O)NC1CCCCCC1 | -6% | -15%
OC(c1ccc(Cl)c(F)c1)c1ncc(-c2ccccc2F)[nH]1 (centres undefined) | 21% | 0%
O=c1cc(-c2ccc(O)c(O)c2)oc2cc(O[C@@H]3O[C@H](CO)[C@@H](O)[C@H](O)[C@H]3O)cc(O)c12 | -20% | -27%
C=CCOC(=O)C(C#N)c1nc2ccccc2nc1N1CCCC1 (centres undefined) | nt | 0%
CCSc1nnc(NC(=O)C2CC2c2ccccc2)s1 (centres undefined) | -16% | -12%
COc1ccc(C(=O)/C=C/c2ccc(N3CCCCC3)c([N+](=O)[O-])c2)cc1 | -8% | -4%
Cc1cc(SCC(=O)Nc2ccc3[nH]c(=O)[nH]c3c2)nc2ccccc12 | -19% | -20%
COc1cccc(NC(=O)CCCn2c(=O)c3cccn3c3cccnc32)c1 | -27% | -12%
FCCN(CCF)c1cccc(Cl)c1 | i | 0%
O=C(NCc1ccccn1)C(=O)NN=C1CCCCCCCCCCC1 | i | -7%
CC(=O)N1CCCc2cc(S(=O)(=O)N3CCC(C(=O)Nc4cccc(Cl)c4C)CC3)ccc21 | 9% | -2%
CSCCC(NC(=O)c1ccccc1Br)C(=O)NCCCn1nc(C)cc1C (centres undefined) | i | 4%
CCOC(=O)Cc1csc(NC(=O)CS(=O)(=O)Cc2ccccc2)n1 | -7% | -8%
CCOC(=O)[C@H](CCc1ccccc1)N[C@@H](C)C(=O)N1[C@H](C(=O)O)C[C@H]2CCCC[C@@H]21 | -14% | -9%
COc1ccc(OC)c(NC(=O)Cc2c(C(=O)O)n(C)c3ccc(C)cc23)c1 | -19% | -10%
O=C(N/N=C/c1ccc(-c2cccc([N+](=O)[O-])c2)o1)[C@H]1C[C@@H]1c1ccccc1 | -6% | -22%
SMILES | VACV mCherry inh | Vaccinia Venus
Cc1oc(S(=O)(=O)N2CCCCC2)cc1NC(=O)Nc1ccccc1 | i | -6%
CC1CC(C)(C)Nc2ccc(OC(=O)c3ccco3)cc21 (centres undefined) | nt | 8%
CC(C)CCN1C(=O)c2cccc3c(N)ccc(c23)C1=O | ? | 13%[7.34 µM]
CCc1nc2ccc(C(=O)NCCC(C)C)cn2c1N(C)Cc1ccc(OC)cc1 | 23% | -19%
CCCC1CCc2[nH]nc(C(=O)NN)c2C1 (centres undefined) | -6% | -8%
Cc1ccc(-c2nnc(OCc3nc4ccccc4n3C)c3ccccc23)cc1 | i | -1%
CCOc1ccc(NC(=O)c2ccc(NC(=O)CSc3nc4ccccc4c(=O)[nH]3)cc2)cc1 | 9% | -6%
CCOc1ccc2nc(NC(=O)c3ccc(C)o3)sc2c1 | -14% | -23%
CC(C)(C)c1ccc(CSc2nc(N)cc(=O)[nH]2)cc1 | -29% | -23%
CC1CCN(C(=O)COc2cccc3c2CCN(Cc2ccccc2)C3=O)CC1 | -15% | -29%
Cc1cccc(C)c1OCCSc1n[nH]c(N)n1 | nt | -10%
CCn1c(CC(=O)Nc2cccc(OC)c2)nnc1SCC(=O)N1CCN(c2ccccc2)CC1 | -17% | -14%
COC(=O)CCN(C(=O)c1ccc(OC(C)=O)cc1)c1ccccn1 | -2% | -16%
CCCC1c2ccc(C)n2CCN1C(=O)Nc1ccc(F)cc1 (centres undefined) | nt | -4%
Cc1c2cnn(CC(=O)NCc3ccccc3)c(=O)c2c(C)n1Cc1cccc(Cl)c1 | -20% | -13%
Cc1cccc(C)c1-n1nnnc1C1(C)CCC(=O)N1C1CC1 (centres undefined) | -6% | -10%
O=C(OC(C(=O)NCC1CCCO1)c1ccccn1)c1cccs1 (centres undefined) | -12% | -8%
O=C(c1ccco1)N1CCCC(Nc2ccc3c(c2)OCCO3)C1 (centres undefined) | ? | -18%
Cc1ncc([N+](=O)[O-])n1CCOC(=O)C12CC3CC(CC(C3)C1)C2 | -5% | -9%
CCOc1ccc2nc(NC(=O)c3ccccn3)sc2c1 | 7.9µM* | ?
CCc1ccc(NC(=O)CSc2nc(=O)n(CCCN3CCOCC3)c3c2CCC3)cc1 | -9% | -12%
CC1CN(Cc2nc3c(c(=O)n(C)c(=O)n3C)n2Cc2ccccc2)CC(C)O1 (centres undefined) | -7% | -2%
O=C(CSc1nc(N2CCOCC2)nc(N2CCOCC2)n1)Nc1ccccc1F | -9% | -7%
O=C1/C(=C/c2ccccc2)CCC1C1CCCC1 (centres undefined) | -11% | -13%
O=C(NCc1ccccn1)c1ccc(Br)s1 | i | -12%

By substructure, those above with an aryl methoxy group.
SMILES | VACV mCherry inh | Vaccinia Venus
CCOc1ccc(NC(=O)/C(=C\c2ccc(OC(C)=O)c(OC)c2)NC(C)=O)cc1 | -3% | 7%
COc1ccc(C(=O)/C=C/c2ccc(N3CCCCC3)c([N+](=O)[O-])c2)cc1 | -8% | -4%
COc1cccc(NC(=O)CCCn2c(=O)c3cccn3c3cccnc32)c1 | -27% | -12%
COc1ccc(OC)c(NC(=O)Cc2c(C(=O)O)n(C)c3ccc(C)cc23)c1 | -19% | -10%
CCc1nc2ccc(C(=O)NCCC(C)C)cn2c1N(C)Cc1ccc(OC)cc1 | 23% | -19%
CCn1c(CC(=O)Nc2cccc(OC)c2)nnc1SCC(=O)N1CCN(c2ccccc2)CC1 | -17% | -14%

The results go on:
SMILES | VACV mCherry inh | Vaccinia Venus
Cc1ccc(N(C)S(=O)(=O)c2nnc(NC(=O)CC(C)C)s2)cc1 | -5% | -9%
C(=NOCCc1ccccc1)c1ccccn1 | -9% | -2%
CCOC(=O)N1CCN(c2cc(=O)n(-c3ccccc3Cl)c(=O)[nH]2)CC1 | -24% | -14%
CC(Sc1nnc(-c2ccncc2)n1C)C(=O)NCC1CCCO1 (centres undefined) | -12% | -13%
Cc1c(CCCl)c(Cl)n2c(nc3ccccc32)c1C#N | ? | ?
CC(=O)Nc1cccc(-c2nnc(SCC(=O)n3c4c(c5ccccc53)CCCC4)n2C)c1 | -5% | -2%
O=C(c1ccc2c(c1)N(Cc1ccc(Cl)cc1)C(=O)c1ccccc1S2=O)N1CCCCC1 (centres undefined) | -11% | -11%
COC(=O)c1c(-c2cccc(C)c2)csc1N | -11% | -12%
CCC1(C)Cc2nc3sc(C(=O)O)c(N)c3cc2CO1 (centres undefined) | nt | ?
Cc1ccccc1S(=O)(=O)Cc1ccc(C(=O)NCc2ccccc2Cl)o1 | 4% | 0%
O=C1CC(c2ccccc2)CC(O)=C1C=NCc1ccc(Cl)c(Cl)c1 (centres undefined) | nt | -6%
COC(=O)C[C@@H]1C=C[C@@H](NC(=O)C2CCC2)[C@@H](CO)O1 | -4% | 5%
Cn1cccc1/C=C1/SC(=O)N(CC(=O)N2CCCC2)C1=O | -15% | -10%
CCOc1cc(N2CCOCC2)c(OCC)cc1NC(=O)c1ccc(C)cc1 | -24% | -11%
CCOCCCN1C(=O)C(O)=C(C(C)=O)C1c1cccs1 (centres undefined) | -14% | -13%
COc1cccc(/C=N/Nc2ncnc(Cl)c2N)c1O | 3.5µM* | 5µM*
COc1ccc(CN(C)CC(=O)NC(=O)NCc2ccccc2)cc1OC | -19% | -8%
COC(=O)c1cc(OC)c(OC)cc1N1C(=O)CCCC1=O | i | -10%
Cc1ccc(S(=O)(=O)N(C)C)cc1NC(=O)COC(=O)c1cccs1 | -8% | -20%
CCn1c(SCC(=O)C(C)(C)C)nnc1-c1ccccc1OC | nt | -12%
O=C(O)Cc1ccc(NC(=O)Nc2cccc3ccccc23)cc1 | ? | -26%
CCc1ccc[n+](-c2nc([O-])sc2C=O)c1 | -16% | -6%
CCOCCc1nn2c(=O)cc(COC(=O)c3ccccc3NC(=O)CC(C)C)nc2s1 | -9% | -3%
Cc1ccc([N+](=O)[O-])c(C(=O)Nc2cccnc2Cl)c1 | i | -13%
CC1SC(=NC(=O)C(C)N2C(=O)c3ccccc3C2=O)NC1=O (centres undefined) | nt | -9%
SMILES | VACV mCherry inh | Vaccinia Venus
COc1cc(S(=O)(=O)N2CCOCC2)ccc1NC(=O)COC(=O)c1ccccn1 | nt | 4%
Cc1ccc(N(CC(=O)NCC2CCCO2)C(=O)CCC(=O)Nc2nccs2)cc1 (centres undefined) | i | -5%
S=C(NC1CCCC1)N1CCOCC1 | i | -16%
COc1ccccc1Oc1ccc(N/C=C/C(=O)C(C)(C)C)cc1 | -24% | -14%
CC(=O)Oc1ccc(C(=O)Nc2ccccc2C(=O)Nc2cccc(C(=O)O)c2)cc1 | -1% | -16%
Cc1cc(C(=O)COc2cccc3cccnc23)c(C)n1C | -28% | -23%
O=C(O)c1ccc(-n2[nH]c3c(c2=O)CCCC3)cc1 | -23% | 2%
CC(=O)C1=C(C)NC(=O)NC1c1ccc(Cl)cc1 (centres undefined) | -3% | -12%
N#Cc1ccccc1Cn1c(=O)n(CCCC(=O)NCc2ccc3c(c2)OCO3)c(=O)c2ccccc21 | -13% | -4%
Cn1c(=O)c2c(-c3ccc(Cl)cc3)n(Cc3ccccc3)cc2n(C)c1=O | -15% | -7%
CC1CCCN(CCOc2ccc(Br)cc2)C1 (centres undefined) | i | -8%
CSc1ccc(/C=C2\C=Cc3ccccc32)cc1 | 16% | -4%
COc1ccc(OC)c(NC(=O)COC(=O)CN(C)S(=O)(=O)c2ccc(C)cc2)c1 | -2% | 0%
Cc1ccc(Cn2cc(C(=O)c3ccc4c(c3)OCO4)c(=O)c3cc(C)ccc32)cc1 | -16% | -21%
Cc1ccc(-c2nnn(CC(=O)N(Cc3cccs3)C(C(=O)NC3CCCCC3)c3ccco3)n2)o1 (centres undefined) | -7% | -6%
COc1ccc(N(Cc2cc3ccc(C)cc3[nH]c2=O)C(C)=O)cc1 | -14% | -8%
COc1cc(=O)n2c(c1C(=O)NCc1ccco1)CCN(Cc1ccc3nsnc3c1)CC2 | -2% | 0%
Cc1ccc(C(=O)Nc2ccc3c(c2)OCCO3)cc1 | -7% | -25%
COc1ccccc1NC(=S)NCCSc1ccc(Cl)cc1 | -13% | -16%
Cc1ccc(CN(C)C(=O)C2CCC(=O)N(CC3CCCCC3)C2)o1 (centres undefined) | -15% | -20%
COc1ccc(Nc2nc(C(C)(C)C)nc3c2nnn3Cc2ccccc2Cl)cc1OC | i | -5%
CC(C)c1nnc(NC(=O)CSc2ncn[nH]2)s1 | -11% | -12%
CCn1c2ccccc2c2cc(NC(=O)c3cc(C)on3)ccc21 | -28% | ?
O=c1cc(-c2ccccc2)[nH]c2cc(Cl)ccc12 | i | -28%
COc1ccc(-c2cccc(C(=O)Nc3ccccc3C)c2)cc1 | -11% | -1%
SMILES | VACV mCherry inh | Vaccinia Venus
CCOc1ccccc1C1CC(=O)NC(C)=C1C(=O)OCc1ccc(C)cc1 (centres undefined) | 0% | 1%
CCCCn1nc2cc(C(=O)NCC34CC5CC(CC(C5)C3)C4)ccc2c1OCC | -25% | ?
C[C@@H]1CN([C@@H](C)CO)S(=O)(=O)c2ccc(Br)cc2O[C@@H]1CN(C)C(=O)NC1CCCCC1 | i | -8%
CCCN1C2CCCC1CC(NC(=O)Nc1ccc(C(C)C)cc1)C2 (centres undefined) | ? | -26%
COC(=O)C1=C(NC(=O)C(C)(C)C)CCS1 | -14% | -8%
CC(C)n1c(SCC(N)=O)nc2c1c(=O)n(C)c(=O)n2C | -15% | -5%
CCC(Sc1nnc(C)c(=O)[nH]1)C(=O)Nc1cccc2ccccc12 (centres undefined) | ? | -2%
N#CC1=C(N)Oc2ccc3ccc(O)cc3c2C1c1ccsc1 (centres undefined) | -5% | 81%[activator]
Cc1nc(N)[nH]c(=O)c1CCCNc1ccc(CCCCC2(CCl)OCCO2)cc1 | ? | -3%
Cc1ccc2nc(-c3cccc(Br)c3)c(Cc3cccc(Cl)c3)n2c1 | 6% | -1%
CC(C)C[C@@H](COCc1ccc(Cl)cc1)N1CCN(C(=O)c2ccc(C(F)(F)F)cc2)CCC1=O | 2% | -9%
COc1ccc(C(=O)N[C@H](C(=O)Nc2nc3ccccc3[nH]2)C(C)C)cc1 | ? | ?
O=C(Nc1ccc(C2=NCCN2)cc1)c1ccc(C(=O)Nc2ccc(C3=NCCN3)cc2)c(Cl)c1 | i | -5%

One compound at a time, as listed above. Values in the order: VACV mCherry inh	Vaccinia Venus
Cn1c(=O)c2c(-c3ccc(Cl)cc3)n(Cc3ccccc3)cc2n(C)c1=O reads -15%	-7%
O=C(O)Cc1ccc(NC(=O)Nc2cccc3ccccc23)cc1 reads ?	-26%
Cc1ccc(N(C)S(=O)(=O)c2nnc(NC(=O)CC(C)C)s2)cc1 reads -5%	-9%
CCC1(C)Cc2nc3sc(C(=O)O)c(N)c3cc2CO1 (centres undefined) reads nt	?

High-throughput results deposited in PubChem by National Center for Advancing Translational Sciences (NCATS).
